# MLL AF4-AF9 inh: inhibitors of human MLL-AF4/AF9 interaction; P42568; AlphaScreen, biotin-AF4 peptide binding to FLAG-AF9; inhibition, % at 10 µM; hit rate 0.47% among 350,000;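 active means every replicate reaching a set inhibition limit, whatever the replicate mean, cut at about 25% in these data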;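 further: 0% = plate neutral control median and 100% = total signal loss; the record names both 10 and 1 µM as test concentration; the first replicate is given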
# Target sequence (P42568 whole entry, looked up): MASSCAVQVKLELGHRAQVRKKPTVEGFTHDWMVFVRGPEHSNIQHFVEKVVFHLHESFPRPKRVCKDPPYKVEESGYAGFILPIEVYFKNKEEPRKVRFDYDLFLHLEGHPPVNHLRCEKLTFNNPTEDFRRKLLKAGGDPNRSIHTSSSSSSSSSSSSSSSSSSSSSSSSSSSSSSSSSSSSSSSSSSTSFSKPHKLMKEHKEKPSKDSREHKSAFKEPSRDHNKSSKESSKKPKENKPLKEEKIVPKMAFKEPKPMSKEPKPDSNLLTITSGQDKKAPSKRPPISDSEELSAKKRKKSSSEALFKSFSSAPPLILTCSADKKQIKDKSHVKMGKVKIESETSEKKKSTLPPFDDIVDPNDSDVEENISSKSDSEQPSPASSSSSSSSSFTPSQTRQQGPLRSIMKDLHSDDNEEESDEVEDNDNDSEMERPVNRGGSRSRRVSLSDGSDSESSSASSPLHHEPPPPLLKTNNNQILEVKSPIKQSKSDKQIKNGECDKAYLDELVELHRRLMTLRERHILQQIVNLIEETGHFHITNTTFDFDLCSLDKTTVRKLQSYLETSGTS
# FGF22 binding: FGF22 (human) thermal shift binding. Q9HCT0. recombinant FGF22 thermal shift, SYPRO orange fluorescence; percent of sucrose octasulfate shift, DMSO zero. calls only at 9.99 µM. hit rate 1.5% among 340,000. AID 651658;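 active means melting point raised past a set limit in the mean and every replicate; three in four hits are not shown here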
# Target sequence (Q9HCT0 whole entry, looked up): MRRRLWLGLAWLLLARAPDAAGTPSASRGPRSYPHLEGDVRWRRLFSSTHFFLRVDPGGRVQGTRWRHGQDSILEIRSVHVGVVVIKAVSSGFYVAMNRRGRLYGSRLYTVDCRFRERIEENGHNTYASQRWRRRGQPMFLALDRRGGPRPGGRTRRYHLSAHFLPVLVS
# * marks the source's active call; other numbers are inactive results; i = inactive. A portion of the library; rates above refer to the full screens.
MLL AF4-AF9 inh,FGF22 binding,SMILES
1.6,i,C[C@@H]1CN([C@@H](C)CO)C(=O)c2cc(NS(C)(=O)=O)ccc2O[C@@H](C)CCCCO[C@@H]1CN(C)C(=O)CCC(F)(F)F
-2.3,i,CC(C)CC#Cc1ccc2c(c1)O[C@@H](CN(C)S(=O)(=O)c1cccc(F)c1)[C@@H](C)CN([C@H](C)CO)S2(=O)=O
0.0,i,C[C@H]1CN([C@@H](C)CO)C(=O)c2cccc(NC(=O)Nc3ccccc3)c2O[C@@H]1CN(C)Cc1ccc(C(=O)Nc2ccccc2N)cc1
-2.7,i,Cc1noc(C)c1NC(=O)Nc1ccc2c(c1)C(=O)N([C@H](C)CO)C[C@@H](C)[C@H](CN(C)S(=O)(=O)c1cn(C)cn1)OCCCC[C@H](C)O2
-1.3,i,COc1cccc(S(=O)(=O)N[C@@H]2CC[C@H](CCn3cc(-c4ccccc4)nn3)O[C@@H]2CO)c1
-1.8,i,C[C@@H]1CN([C@H](C)CO)S(=O)(=O)c2ccc(C3=CCCC3)cc2O[C@@H]1CN(C)C(=O)C1CCOCC1
6.1,i,CC(C)(C)[S@@](=O)N1Cc2cc(C(=O)N[C@H]3CCN(Cc4ccccc4)C3)nc(-c3cccc(-c4ccncc4)c3)c2[C@H]1CCO
-0.6,i,O=S(=O)(N[C@@H]1CC[C@@H](CCn2cc(C3(O)CCCC3)nn2)O[C@H]1CO)c1ccccc1
0.8,i,C[C@H]1CN([C@@H](C)CO)C(=O)c2cc(C#CC3CCCCC3)cnc2O[C@@H]1CN(C)C(=O)c1ccncc1
-1.1,i,CCCNC(=O)C[C@@H]1CC[C@H]2[C@@H](COC[C@@H](O)CN2C(=O)c2ccc(F)cc2)O1
6.7,i,CO[C@H]1CC[C@H]2CCN(C)C(=O)C[C@H](c3ccccc3)CN(C)C(=O)c3cccc(C#N)c3OC[C@H]1O2
2.4,i,C[C@@H]1CN([C@@H](C)CO)C(=O)c2cc(C#Cc3ccccc3F)cnc2O[C@@H]1CN(C)S(=O)(=O)c1ccccc1
-0.2,i,COc1ccc(NC(=O)N(C)C[C@H]2Oc3ccc(NS(=O)(=O)c4ccc(OC)cc4)cc3CC(=O)N([C@H](C)CO)C[C@H]2C)cc1
-4.5,i,C[C@@H]1CN([C@@H](C)CO)C(=O)c2cc(NS(=O)(=O)c3ccc(F)cc3)ccc2O[C@@H]1CN(C)C(=O)NC1CCCCC1
5.6,i,O=C(C1CCOCC1)N1CC(=O)N2[C@H](C1)[C@@H](c1ccc(C#CC3CCCCC3)cc1)[C@@H]2CO
-2.0,i,O=C(Nc1ccc2c(c1)[C@H]1C[C@@H](CC(=O)N3CCc4ccccc4C3)O[C@H](CO)[C@H]1O2)C1CCOCC1
-0.5,i,CN1C(=O)c2cc(NS(C)(=O)=O)ccc2OC[C@H]2O[C@H](CC(=O)NC3CCCCC3)CC[C@H]21
1.1,i,C[C@H]1CN([C@@H](C)CO)C(=O)c2cccc(NS(=O)(=O)c3cccs3)c2O[C@H]1CN(C)Cc1ccc(Cl)c(Cl)c1
1.4,i,CCCC(=O)Nc1ccc2c(c1)C(=O)N(C)C[C@@H](OC)[C@H](C)CN(Cc1cc(-c3ccccc3)on1)[C@H](C)CO2
-2.9,i,COc1cccc(C(=O)Nc2ccc3c(c2)C(=O)N(C)[C@@H]2CC[C@@H](CC(=O)NCCCN4CCOCC4)O[C@H]2CO3)c1
-1.3,i,CO[C@@H]1CN(C)C(=O)c2ccc(NS(=O)(=O)c3ccccc3Cl)cc2OC[C@H](C)NC[C@@H]1C
-1.1,i,C[C@@H]1CN([C@@H](C)CO)C(=O)Cc2cc(NC(=O)NC3CCCCC3)ccc2O[C@@H]1CN(C)C(=O)NC1CCCCC1
-0.4,i,CCNC(=O)C[C@@H]1CC[C@H]2[C@@H](COc3ccc(NC(=O)Nc4ccccc4F)cc3C(=O)N2C)O1
0.3,i,CCCNC(=O)N[C@H]1CC[C@H](CC(=O)NC2CCCCC2)O[C@@H]1CO
1.5,i,C[C@H](CO)N1C[C@H](C)[C@@H](CN(C)S(=O)(=O)c2ccc(F)cc2)Oc2ccc(NS(=O)(=O)c3ccc(Cl)cc3)cc2CC1=O
-2.3,i,COc1ccc(S(=O)(=O)Nc2cccc3c2O[C@@H](CN(C)S(=O)(=O)c2cccs2)[C@@H](C)CN([C@@H](C)CO)C3=O)cc1
-0.8,i,Cc1ccccc1-c1ccc2c(c1)O[C@H](CN(C)C(=O)Nc1ccccc1)[C@@H](C)CN([C@H](C)CO)S2(=O)=O
0.0,i,C[C@H]1CN([C@@H](C)CO)C(=O)c2cc(NC(=O)Cc3cn(C)c4ccccc34)ccc2O[C@@H]1CN(C)Cc1ccc(C(=O)O)cc1
-2.8,i,O=C(NCC[C@H]1CC[C@@H](NC(=O)C2CCC2)[C@H](CO)O1)c1cc(Cl)cc(Cl)c1
1.4,i,O=S(=O)(c1ccccc1)N1C[C@H]2[C@@H](c3ccccc31)[C@@H](CO)N2Cc1ccccn1
-0.7,i,C[C@H](CO)N1C[C@H](C)[C@H](CN(C)C(=O)Nc2ccc(C(F)(F)F)cc2)Oc2ccc(NC(=O)CCC(F)(F)F)cc2C1=O
-1.8,i,O=C(c1ccc(F)cc1)N1CCCCN2[C@H](CO)[C@@H](c3ccc(/C=C/c4ccccc4)cc3)[C@@H]2C1
-7.3,i,C[C@@H]1CN([C@H](C)CO)C(=O)c2cc(C#CC3CC3)cnc2O[C@@H]1CN(C)S(C)(=O)=O
3.0,i,Cc1noc(C)c1NC(=O)Nc1cccc2c1O[C@H](CN(C)C(=O)Nc1ccccc1)[C@H](C)CN([C@@H](C)CO)C2=O
-1.2,i,Cc1ccc(S(=O)(=O)Nc2ccc3c(c2)C(=O)N([C@H](C)CO)C[C@@H](C)[C@@H](CN(C)C(=O)Nc2c(C)noc2C)OCCCC[C@@H](C)O3)cc1
-4.7,i,CCCCCCCCCCCCN1CCSCCS1(=O)=O

# Random excerpt: 2 compounds from above
MLL AF4-AF9 inh,FGF22 binding,SMILES
-1.1,i,C[C@@H]1CN([C@@H](C)CO)C(=O)Cc2cc(NC(=O)NC3CCCCC3)ccc2O[C@@H]1CN(C)C(=O)NC1CCCCC1
-1.3,i,COc1cccc(S(=O)(=O)N[C@@H]2CC[C@H](CCn3cc(-c4ccccc4)nn3)O[C@@H]2CO)c1

# New compounds follow:
MLL AF4-AF9 inh,FGF22 binding,SMILES
-1.7,i,CCC(=O)N[C@H]1C=C[C@@H](CC(=O)NCc2ccccc2F)O[C@H]1CO
7.4,i,COc1ccc(-c2ccc3c(c2)O[C@H](CN(C)C(C)=O)[C@@H](C)CN([C@H](C)CO)S3(=O)=O)cc1
-2.1,i,CCNC(=O)C[C@@H]1C=C[C@@H](NC(=O)C2CCC2)[C@@H](CO)O1
0.3,i,C[C@H](CO)N1C[C@H](C)[C@@H](CN(C)C)Oc2ccc(NS(=O)(=O)c3cccs3)cc2CC1=O
-3.6,i,C[C@@H]1CN([C@H](C)CO)C(=O)c2cc(C#Cc3ccccc3F)cnc2O[C@@H]1CN(C)C(=O)C1CCC1
-1.7,i,C[C@H]1CN([C@@H](C)CO)S(=O)(=O)c2ccc(-c3cccnc3)cc2O[C@H]1CN(C)CC1CC1
-4.2,i,Cc1ccc(S(=O)(=O)N(C)C[C@@H]2Oc3ncc(C#CC(C)(C)O)cc3C(=O)N([C@H](C)CO)C[C@@H]2C)cc1
0.8,i,CCCNC(=O)N1[C@@H]2c3ccc(-c4cccc(OC)c4)c(=O)n3C[C@H]1[C@H](CO)[C@H]2C(=O)NC1CCC1
-1.1,i,C[C@@H]1CN([C@@H](C)CO)C(=O)Cc2cc(NC(=O)Nc3ccccc3)ccc2O[C@@H]1CN(C)Cc1ccc(C(F)(F)F)cc1
-1.7,i,C[C@@H](NC(=O)[C@H]1[C@H](CO)[C@H]2Cn3c(cccc3=O)[C@H]2N1CC1CC1)c1ccccc1
0.2,i,C[C@@H]1CN([C@H](C)CO)C(=O)c2cccc(NC(=O)Nc3ccc(C(F)(F)F)cc3)c2O[C@@H]1CN(C)C
3.3,i,CN1C(=O)[C@@H]2[C@@H](C[C@]3(COc4ccccc4)OC[C@H]2/C3=C\c2ccccc2)C1=O
-1.3,i,Cc1noc(C)c1NC(=O)Nc1ccc2c(c1)C(=O)N([C@@H](C)CO)C[C@H](C)[C@H](CN(C)C)OCCCC[C@@H](C)O2
-0.8,i,CC(=O)N1[C@@H](CO)[C@H](c2ccccc2)[C@@H]1CN(CC(C)C)C(=O)c1ccccn1
1.0,i,CC(C)CC#Cc1ccc2c(c1)O[C@@H](CN(C)Cc1ccc(F)cc1)[C@@H](C)CN([C@H](C)CO)S2(=O)=O
-6.1,i,COCC(=O)N(C)C[C@H]1Oc2cc(-c3ccncc3)ccc2S(=O)(=O)N([C@H](C)CO)C[C@H]1C
-1.1,i,CO[C@@H]1CN(C)C(=O)c2ccc(NC(=O)C3CC3)cc2OC[C@H](C)NC[C@@H]1C
-1.6,i,C[C@H]1CN([C@@H](C)CO)C(=O)c2cc(NC(=O)Nc3ccccc3)ccc2O[C@H]1CN(C)C(=O)Nc1cccc2ccccc12
-14,i,CCS(=O)(=O)N[C@H]1CC[C@H](CC(=O)Nc2ccc(-c3ccccc3)cc2)O[C@H]1CO
0.3,i,C[C@H]1CN([C@@H](C)CO)C(=O)Cc2cc(NC(=O)C3CCCCC3)ccc2O[C@H]1CN(C)S(=O)(=O)c1ccc(Cl)cc1
1.7,i,C[C@@H]1CN([C@@H](C)CO)C(=O)c2cccc(NC(=O)Nc3ccccc3)c2O[C@@H]1CN(C)S(C)(=O)=O
-3.8,i,O=C(C[C@@H]1CC[C@@H]2[C@H](COC[C@H](O)CN2C(=O)c2cnccn2)O1)NCc1ccc(Cl)cc1
0.7,i,COc1ccc(S(=O)(=O)Nc2ccc3c(c2)C(=O)N([C@@H](C)CO)C[C@H](C)[C@@H](CN(C)CC2CC2)O3)cc1
6.5,i,C[C@@H]1CN([C@@H](C)CO)C(=O)c2cccc(NC(=O)Nc3ccc(F)cc3)c2O[C@@H]1CN(C)Cc1ccc(C(F)(F)F)cc1
-1.5,i,COc1ccc(S(=O)(=O)N(C)C[C@@H]2Oc3ncc(C#Cc4ccc(OC)c(OC)c4)cc3C(=O)N([C@H](C)CO)C[C@@H]2C)cc1
1.2,i,C[C@@H]1CN([C@H](C)CO)C(=O)Cc2cc(NC(=O)NC3CCCCC3)ccc2O[C@H]1CN(C)Cc1ccc2c(c1)OCO2
-1.4,i,C[C@@H]1CN([C@@H](C)CO)C(=O)c2cc(NC(=O)c3ccncc3)ccc2O[C@H]1CN(C)S(=O)(=O)c1cccs1
-2.0,i,CN1C(=O)c2cc(NC(=O)Nc3ccccc3)ccc2OC[C@H]2O[C@H](CC(=O)O)CC[C@H]21
12,i,C[C@H](CO)N1C[C@H](C)[C@@H](CN(C)CC2CCCCC2)Oc2ccc(N(C)C)cc2CC1=O
5.3,i,O=C(C[C@H]1C=C[C@H](NC(=O)Nc2ccc(F)cc2)[C@@H](CO)O1)NCCN1CCCC1
0.6,i,C[C@@H]1CN([C@@H](C)CO)S(=O)(=O)c2ccc(C3=CCCCC3)cc2O[C@@H]1CN(C)C(=O)C1CCOCC1
1.9,i,CNC[C@H]1Oc2ccc(NC(=O)Cc3ccccc3)cc2C(=O)N([C@@H](C)CO)C[C@@H]1C
-4.0,i,C[C@@H]1CN([C@H](C)CO)C(=O)c2cc(NS(=O)(=O)c3cn(C)cn3)ccc2O[C@@H](C)CCCCO[C@H]1CN(C)Cc1ccncc1
-0.5,i,COc1ccc(NC(=O)Nc2ccc3c(c2)C(=O)N([C@H](C)CO)C[C@@H](C)[C@@H](CN(C)S(=O)(=O)c2cccs2)O3)cc1
-1.6,i,CCCNC(=O)[C@H]1[C@H](CO)[C@H]2Cn3c(ccc(C4=CCCC4)c3=O)[C@H]2N1C(=O)C1CC1
3.0,i,C[C@@H]1CCCCO[C@H](CN(C)S(=O)(=O)c2ccc(F)cc2)[C@@H](C)CN([C@@H](C)CO)C(=O)c2cc(NS(=O)(=O)c3ccccc3)ccc2O1
-1.9,i,C[C@@H]1CN([C@H](C)CO)C(=O)c2cc(-c3ccc(F)cc3)cnc2O[C@@H]1CN(C)Cc1ccc(C(=O)O)cc1
2.3,i,O=C(Nc1ccccc1)N1C[C@H]2[C@@H](c3ccccc31)[C@H](CO)N2Cc1ccccc1
-1.3,i,COc1cccc(CNC(=O)C[C@H]2CC[C@H](NC(=O)C3CCC3)[C@H](CO)O2)c1
0.3,i,COc1ccccc1NC(=O)N1[C@@H](C#N)[C@@H](c2ccccc2)[C@@H]1CO
-1.5,i,COc1ccc(S(=O)(=O)N(C)C[C@@H]2Oc3ccc(NC(=O)Cn4cnnn4)cc3C(=O)N([C@H](C)CO)C[C@H]2C)cc1

# Four of these compounds in a different format:
# Values in the order – MLL AF4-AF9 inh | FGF22 binding
- C[C@@H]1CN([C@@H](C)CO)C(=O)c2cccc(NC(=O)Nc3ccc(F)cc3)c2O[C@@H]1CN(C)Cc1ccc(C(F)(F)F)cc1
 : 6.5 | i
- CC(C)CC#Cc1ccc2c(c1)O[C@@H](CN(C)S(=O)(=O)c1cccc(F)c1)[C@@H](C)CN([C@H](C)CO)S2(=O)=O
 : -2.3 | i
- COc1cccc(S(=O)(=O)N[C@@H]2CC[C@H](CCn3cc(-c4ccccc4)nn3)O[C@@H]2CO)c1
 : -1.3 | i
- Cc1noc(C)c1NC(=O)Nc1ccc2c(c1)C(=O)N([C@@H](C)CO)C[C@H](C)[C@H](CN(C)C)OCCCC[C@@H](C)O2
 : -1.3 | i

# Assay outcomes deposited in PubChem by Broad Institute.
